Screens as filed in PubChem BioAssay.
BJeLR viability: kills HRASV12-expressing BJeLR cells; 300,000 tested, 0.17% active; BJeLR (HRASV12) viability, CellTiter-Glo ATP luminescence, 48 h; reference of the scale not given here; AID 1554; inhibition, % (concentration not given with the values);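 active = replicate mean above 50%; inconclusive = above 50% but judged a plate artefact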;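 also: 50 nL library stock added to about 25 µL; numbers are from one replicate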
Mtb hypoxia rep: reduces hypoxia-regulated biosensor signal in M. tuberculosis; M. tuberculosis hypoxia-regulated fluorescent reporter, fluorescence; fluorescence inhibition, % (no concentration beside the values); AID 1159583; 300,000 tested, 0.1% active;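 active = 35 to 45% if threefold the growth effect, above 45% if 1.5-fold the growth effect; inactive = the rest, general growth blockers included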;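 also: wells of about 50 µL received 100 nL stock; 0% = vehicle wells and 100% = reference inhibitor wells; whole bacteria with a GFP reporter of the hypoxia response; strong numbers were not always called active; many hits fall short of the cut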
PrP 5UTR inh: suppresses PrP 5' UTR mRNA reporter expression | cell-based PrP 5' UTR mRNA reporter, plate reader | inhibition, % (test concentration not listed) | 340,000 tested, 0.35% active | AID 488862;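 active = every replicate at 50% or more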;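 also: 0 = median of the neutral control wells; tested in H4 reporter cells; numbers are from one replicate; inactives centre near -14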
RN4220 kill: S. aureus RN4220 growth inhibition; OD600, 16 h; inhibition, % (concentration not given with the values); 330,000 tested, 0.33% active;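 active = z-score of -3 or lower and OD600 up to 0.18 on both plates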;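 also: plate controls were untreated cells for no effect and reference antibiotic for full effect; stock transfer was 100 nL into about 80 µL; one replicate is shown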
Autofluor counter: flagged as autofluorescent in microsphere protease counterscreen. compound autofluorescence counterscreen, microsphere flow cytometry; stronger effect = higher value. fluorescence intensity (no concentration beside the values). 360,000 tested, 3.1% active. AID 624483;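 active = at least 3 SD above the mean of all compounds, about 16000 in these data; inconclusive = too few beads counted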;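 also: 100 nL of 1 mM stock went into each well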
Sa ugtP lethal: kills S. aureus RN4220 lacking UgtP; S. aureus RN4220 ugtP deletion, OD600 growth, 16 h; some inactives read as strong as hits; growth inhibition, % (test concentration not listed); 330,000 tested, 0.54% active;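 active = z-score under -3 and OD600 up to 0.15 on both plates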;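 also: plate controls were untreated wells for no effect and antibiotic for full effect; wells of about 80 µL received 100 nL stock; the first replicate is given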
Mtb hypoxia rep growth: further read-out of Mtb hypoxia rep, marked with its call; growth inhibition, %; measured here: M. tuberculosis growth (absorbance);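 0% = vehicle and 100% = reference antibiotic; read after six days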
* hit, by the source's call; u = inconclusive; x = no result given.

Structure | BJeLR viability | Mtb hypoxia rep | Mtb hypoxia rep growth | PrP 5UTR inh | RN4220 kill | Autofluor counter | Sa ugtP lethal
C=CCn1c(Cc2cccs2)nnc1SCC(=O)NCc1ccco1 | 6.2 | 4.8 | 2.5 | -16.6 | 5.6 | 3007 | 2.9
CC(C)(C)c1ccc(OC(=O)c2cccnc2)cc1 | -11.9 | 5.9 | 8.9 | -14.9 | 4.6 | 4123 | -5.3
COc1cc(C)c(NC(=O)C(=S)NCCc2ccccc2)cc1C | 1.0 | -13.4 | -4.0 | -24.6 | 69.1 | 4143 | 2.2
Cc1cc(/C=N/NC(N)=O)c(C)n1-c1ccc(F)cc1 | 3.2 | x | x | -31.5 | x | 4802 | x
COc1cc(C)c(C)cc1S(=O)(=O)N1CCCc2ccccc21 | 8.0 | 19.2 | 3.2 | 2.0 | 8.5 | 3251 | 7.4
O=[N+]([O-])c1ccccc1Nc1nc(-c2cccnc2)cs1 | -7.4 | 11.2 | -1.5 | -14.7 | 9.1 | 3630 | -9.0
NC(=O)CCn1nc(-c2ccccc2)c2ccccc2c1=O | -1.5 | x | x | -4.9 | 0.7 | 4633 | 1.9
COc1ccc(N2CC(C(=O)NC3CCSC3=O)CC2=O)cc1 (configuration not stated) | 6.1 | 3.7 | -3.8 | -15.7 | 1.5 | 3762 | 2.4
CC(C)OCCCNC(=O)CN1C(=O)/C(=C/c2ccccc2)Sc2ccccc21 | -3.1 | 5.5 | 3.6 | -14.3 | 3.5 | 2625 | 5.2
Cc1cccc(OCC(=O)Nc2cccc3nsnc23)c1 | 2.9 | -1.0 | 5.5 | -36.9 | 5.6 | 9436 | 1.6
COc1cccc([C@@H]2CC=C(C(=O)O)[C@H](c3ccc(Br)cc3)N2S(=O)(=O)c2ccc(C)cc2)c1 | x | -1.9 | 1.1 | -6.5 | 19.8 | 3665 | 18.2
O=S(=O)(c1cc(F)ccc1F)N1CCN(c2ncccn2)CC1 | 5.4 | 0.8 | 2.0 | -23.5 | -3.2 | 3929 | -3.1
CCOC(=O)N1CCN(c2c(NCCCN(CC)CC)c(=O)c2=O)CC1 | -7.7 | -6.2 | -1.2 | -30.0 | -7.5 | 3676 | 3.4
N#Cc1c(C(F)(F)F)cc(-c2ccccc2)nc1SCc1nc(N)nc(N2CCOCC2)n1 | -3.6 | -14.4 | 3.4 | -16.5 | 1.0 | 4205 | 15.9
C=CCn1c(O)c(C=NCCN2CCOCC2)c(=O)[nH]c1=S | -9.6 | 7.4 | 2.1 | -10.2 | 4.6 | u | 7.1
CC(C)(C)n1nc2c(c1NC(=O)c1cc3ccccc3o1)CS(=O)(=O)C2 | 4.4 | -3.9 | -1.7 | 21.6 | 18.2 | 4689 | 8.4
Cc1cc(C)c(C)c(S(=O)(=O)N2CCC(C(=O)N3CCCC3)CC2)c1C | x | 11.8 | 3.9 | -25.8 | 4.9 | x | 5.2
O=C(NCc1ccc2c(c1)OCO2)C(c1ccco1)N(C(=O)c1csnn1)c1ccccc1 (configuration not stated) | 4.7 | 1.6 | 2.6 | -58.7 | 0.6 | 6435 | 0.3
COc1ccc2c(c1)c(C(=O)NN=Cc1cn(C)c3ccccc13)c(C)n2C | x | 8.2 | -6.4 | x | -0.3 | x | -0.8
COc1ccccc1Cn1c(=O)[nH]c2cccnc21 | -7.6 | x | x | 5.4 | -1.0 | 4793 | -0.6
C#CCOc1c(Cl)cc(C=NO)cc1OC | x | 0.2 | 11.4 | x | 2.4 | x | 5.2
Cc1ccccc1OCCNC(=O)CNC(=O)c1ccccc1O | -6.2 | 4.6 | 8.2 | -10.1 | 0.6 | 11063 | -2.6
O=C(CCNC(=O)N1CCn2c1nc1ccccc12)NCc1ccc(Cl)cc1 | 3.8 | 19.2 | 7.6 | -4.3 | -2.4 | 5955 | -0.1
Cc1cc(C)c(OCC(=O)Nc2nnc(-c3ccco3)o2)c(C)c1 | -3.7 | 1.7 | 5.9 | -19.2 | -2.3 | 3786 | 16.9
CCc1cc(/C(Cc2csc(C)n2)=N/O)c(O)cc1O | 14.5 | x | x | -8.1 | x | 2707 | x
CC(=O)N1CCc2cc(S(=O)(=O)NC(C(=O)NCc3ccccc3)C(C)C)ccc21 (configuration not stated) | 6.4 | x | x | -11.9 | 7.9 | 3414 | 4.4
Cc1ccc(C(=O)OC(C)C(=O)NCc2ccc3c(c2)OCO3)cc1S(=O)(=O)N1CCOCC1 (configuration not stated) | 6.3 | 6.2 | -17.7 | -15.4 | -1.0 | 6346 | -1.7
O=c1c2ccccc2nc2n1C(CSc1ccccc1)CS2 (configuration not stated) | -20.2 | x | x | -33.2 | x | 4274 | x
C=CCn1c(SCC(=O)c2ccc(CNC(C)=O)o2)nc2scc(C3CC3)c2c1=O | -2.8 | 1.5 | 15.7 | -0.6 | 5.3 | 3261 | -5.5
Cc1ccc(-c2nc3cnccn3c2Nc2ccc3c(c2)OCCO3)o1 | -1.9 | 8.1 | 15.6 | -18.5 | 8.4 | 9984 | -2.0
CSCC[C@H](NC(=O)N1C[C@H]2C[C@@H](C1)c1cccc(=O)n1C2)C(=O)Nc1ccc(NC(C)=O)cc1 | -4.3 | x | x | -33.8 | -0.6 | 5443 | 7.1
O=C(Nc1ccccc1N1CCOCC1)C1(c2ccc(Cl)cc2)CCC1 | 7.2 | 0.6 | 4.2 | -17.8 | -0.2 | 4647 | 4.6
CCOC(=O)CC1c2ccc(C(F)(F)F)cc2S(=O)(=O)N1c1ccccc1 (configuration not stated) | x | 16.1 | 8.2 | x | 13.8 | x | 12.2
Cc1ccccc1N1CCN(S(=O)(=O)N(C)C)CC1 | -2.3 | 4.4 | 5.9 | -4.6 | 3.6 | 4605 | 5.5
CC(=NOC(=O)c1ccccc1)c1oc(C)nc1C | x | -7.9 | -4.5 | x | -1.6 | x | -3.5
CC(C)(C)OC(=O)N1CCN(C(=O)Cn2cc(CCO)nn2)CC1 | -6.0 | -0.9 | -11.2 | -4.5 | -0.6 | 2832 | -5.1
CCOC(=O)CCCNC(=O)CN1C(=O)NC(c2ccccc2)(c2ccccc2)C1=O | 16.3 | -0.8 | -2.3 | -13.9 | -1.0 | 6169 | 1.6
CCN(CC)S(=O)(=O)c1ccc(C(=O)NC2=NCCS2)cc1 | -8.8 | -7.1 | 9.1 | 8.0 | 2.1 | 4122 | -1.7
CCCCNc1nnc(Cc2ccc(Cl)cc2)c(=O)[nH]1 | -5.2 | -0.1 | 10.9 | -32.3 | -0.6 | 3858 | -0.2
CN1CCC(=NNC(=O)C(=O)NC(C)(C)C)CC1 | 2.9 | 0.5 | 3.6 | -7.9 | 3.8 | 11279 | -0.2
CC[N+]1(CC)CC2=Cc3ccccc3CC2C1 (configuration not stated) | -6.2 | 8.3 | 4.2 | -0.9 | 6.3 | 4544 | 17.4
CC(C)(C)CC(=O)Nc1nn[nH]n1 | -2.1 | 0.5 | -0.8 | -22.3 | -0.5 | 1992 | 2.4
COC(CNC(=O)c1ccc2c3c(onc13)-c1ccccc1C2=O)OC | -2.3 | 2.8 | -11.9 | -81.8 | 49.4 | x | 35.6
COc1cc(/C=N/NC(=O)c2cccc([N+](=O)[O-])c2)ccc1OCc1ccc(C)cc1 | -0.1 | x | x | -63.8 | x | 9441 | x
O=C(OCc1nnc(-c2ccccc2)o1)c1cccc(S(=O)(=O)N2CCOCC2)c1 | 0.7 | 11.9 | -3.2 | -17.7 | 1.3 | u | -20.0
COc1ccccc1C(=O)NC(=O)OCCn1c(C)cnc1[N+](=O)[O-] | -10.5 | 7.7 | 8.9 | -10.2 | 15.9 | 3368 | 8.0
OCC1(CC2CCCCO2)CCN(Cc2nc3ccccc3[nH]2)CC1 (configuration not stated) | -6.1 | 10.3 | -0.2 | -6.5 | 1.3 | 3924 | 5.8
CC(C(=O)Nc1ccccc1-c1ccccc1)N1CCN(Cc2ccccc2)CC1 (configuration not stated) | 2.9 | 3.2 | -5.2 | -26.7 | 4.7 | 3867 | -0.9
CCN(CC)S(=O)(=O)c1cccc(-c2nn(-c3ccccc3)cc2/C=C(\C#N)C(=O)NCc2ccco2)c1 | 3.8 | 12.5 | 0.1 | -5.5 | 1.3 | 10495 | -1.5
COc1ccccc1NC(=O)C1CCN(C(=O)NCc2ccccc2)CC1 | -16.7 | x | x | -11.2 | x | 5274 | x

Continued.
Structure | BJeLR viability | Mtb hypoxia rep | Mtb hypoxia rep growth | PrP 5UTR inh | RN4220 kill | Autofluor counter | Sa ugtP lethal
Cc1ccc(NC2=C(Cl)C(=O)OC2OC(C)C)cc1 (configuration not stated) | 2.8 | 2.2 | 6.3 | -11.1 | -0.6 | 2940 | 6.8
O=S(=O)(c1cccc2cccnc12)N1CCCCC1 | 0.7 | x | x | -11.5 | x | 4408 | x
COC(=O)[C@H](Cc1ccccc1)NC(=O)N1CCN(c2ccc(F)cc2)CC1 | 2.0 | -5.3 | -4.1 | -14.7 | 3.7 | x | 9.2
O=C(NC1CCCCCC1)C1c2ccccc2C(=O)N1Cc1cccs1 (configuration not stated) | 7.2 | 10.6 | 5.6 | -8.5 | 3.8 | 7622 | 6.0
CCOC(=O)NC(NS(=O)(=O)c1ccccc1)(C(=O)OCC)C(F)(F)F (configuration not stated) | -15.0 | 5.0 | 2.4 | -21.5 | 51.4 | 8471 | 1.8
CC1CN(C(=O)CSc2nnc(-c3ccccc3)o2)CC(C)O1 (configuration not stated) | 13.0 | 20.6 | 20.4 | -0.8 | 0.7 | 5743 | 4.6
Cc1nn(CCS(=O)(=O)c2ccc(Cl)cc2)c(C)c1Br | 5.7 | 2.8 | -2.2 | -22.5 | 7.3 | 5399 | -2.3
O=[N+]([O-])c1ccc(-c2nc(C(Cl)Cl)c3ccccc3n2)cc1 | 16.4 | 20.5 | 13.4 | 13.0 | 11.0 | x | 16.2
CCOC(=O)CSc1nc(C)c2ccc(C)cc2n1 | 1.8 | -3.6 | 6.9 | -30.6 | 0.5 | 3116 | -6.0
CC(=O)c1cccc(NC(=O)/C(=C/c2ccco2)NC(=O)c2ccco2)c1 | -5.4 | 11.5 | 3.9 | -22.6 | 5.7 | 5792 | -8.5
COc1ccc(NC(=O)Nc2ccc(Br)cn2)cc1OC | -0.5 | 5.6 | 0.6 | 3.1 | 5.7 | 17621* | 0.0
CCn1cc(C(=O)N[C@H](C(=O)NCCO)C(C)C)c(=O)c2cc3c(cc21)OCO3 | -15.7 | -0.4 | -3.0 | -17.9 | -0.5 | 3079 | 0.6
COc1ccc(C2C(C(=O)c3ccc(C)o3)=C(O)C(=O)N2Cc2ccco2)cc1OC (configuration not stated) | 3.5 | -1.2 | 5.4 | -13.2 | 9.9 | 5423 | 3.7
c1ccc(Oc2nc3ccccc3n3cccc23)cc1 | -7.5 | -9.6 | 10.4 | -14.2 | -3.1 | 2956 | 67.5
O=C(/C=C/c1ccc(N2CCOCC2)cc1)c1ccccc1 | 4.9 | -2.0 | 0.6 | -65.1 | 3.5 | 2893 | 10.3
NS(=O)(=O)c1ccc(NC(=O)c2ccc(CNS(=O)(=O)c3cc(C(F)(F)F)ccc3Cl)cc2)cc1 | 11.0 | -1.8 | -3.6 | -17.9 | 8.0 | 4336 | 18.0
Cc1ccc(-n2c(=O)cc(N3CCC(C)CC3)[nH]c2=O)cc1 | 3.9 | 7.3 | 3.6 | -23.6 | 3.2 | 11463 | 3.6
O=C(Nc1cccc(F)c1)N1CCCC(CNS(=O)(=O)Cc2ccccc2)C1 (configuration not stated) | -6.3 | 5.2 | 3.0 | -21.6 | 3.9 | 4383 | 2.2
CCOc1ccc(NC(=O)/C=C/c2ccccc2)c([N+](=O)[O-])c1 | 5.0 | 8.6 | 1.9 | -68.4 | 8.0 | 2145 | 9.5

Two of the compounds above, with values under each structure:
Values in the order: BJeLR viability	Mtb hypoxia rep	Mtb hypoxia rep growth	PrP 5UTR inh	RN4220 kill	Autofluor counter	Sa ugtP lethal
CC(C)(C)n1nc2c(c1NC(=O)c1cc3ccccc3o1)CS(=O)(=O)C2
 : 4.4	-3.9	-1.7	21.6	18.2	4689	8.4
Cc1ccc(-n2c(=O)cc(N3CCC(C)CC3)[nH]c2=O)cc1
 : 3.9	7.3	3.6	-23.6	3.2	11463	3.6

Hits appear at their usual frequency; any-hit rate near 4%.
